Lassa entry inh: blocks Lassa virus binding to or entry into cells; Lassa virus pseudotype entry inhibition, cell reporter; control for the full effect not named in the record; AID 540256; 300,000 tested, 1.2% active; Potency, µM (series often up to 37.9 µM), for the others: at the top dose activity change, negative = inhibition, hits mostly inhibitors; active means well fitted inhibition curve with a large enough effect; inconclusive means small, poorly fitted or top-dose-only effect, or effect the other way; inactive means flat fitted curve, though single readings scatter; tested in HEK293 cells; also: % is scaled to controls: 0 for no effect and ±100 for the full control effect; nearly all actives have a fitted effect of over 50% in size; luciferase read-out
RE007 growth inh: less growth of the S. pombe RE007 Vpr strain | AID 651644 | 360,000 tested, 0.21% active | Potency, µM (titrated, usually from 92.2 µM), for inactives: top-dose activity change, negative = less growth | S. pombe RE007 Vpr strain, BacTiter-Glo ATP luminescence, 24 h; control for the full effect not named in the record; active = well fitted falling curve with a large enough effect; inconclusive = small, poorly fitted or top-dose-only effect; inactive = no such curve, though single readings can be large or run the other way;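 also: % is scaled to controls: 0 for no effect and ±100 for the full control effect; nearly all actives have a fitted effect of over 50% in size; the assay follows cell death caused by Vpr and the record does not say whether a fall means rescue or toxicity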
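Fission yeast strain RE007, carrying one chromosomally integrated HIV-1 vpr copy, was seeded at OD 0.01 in PMG+AL medium with 23 nL pinned compound. After 24 h at 30 °C and 99% humidity, viability was read by BacTiter-Glo luminescence.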
NS1 inh: inhibitors of influenza NS1 protein function | S. cerevisiae slowed by influenza A NS1, growth recovery by OD600 | Potency, µM (series often up to 46.1 µM), without a hit: at the top dose activity, positive = more growth | 270,000 tested, 0.4% active | AID 2326; also: actives are rising curves; nearly all actives have a fitted effect of over 50% in size
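Growth recovery, yeast-based: influenza A NS1 expressed in S. cerevisiae causes slow growth, and suppressors are detected by OD600. The parent strain without NS1 is used as positive control.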
MARV entry inh: Marburg virus entry inhibition; AID 540276; Marburg virus pseudotyped entry inhibition, cell reporter; control for the full effect not named in the record; about a third of the inactives were read at about 46 µM; Potency, µM (top dose mostly 37.8 µM), without a hit: at the top dose activity change, negative = inhibition, actives largely listed as inhibitors; 300,000 tested, 1.8% active; active = well fitted inhibition curve with a large enough effect; inconclusive = small, poorly fitted or top-dose-only effect, or effect the other way; inactive = flat fitted curve, though single readings scatter; tested in HEK293 cells; about a fifth of its hits are not listed in these tables; also: % is scaled to controls: 0 for no effect and ±100 for the full control effect; luciferase read-out
SARS PLP yeast: SARS-CoV PLP inhibition in yeast | S. cerevisiae expressing SARS-CoV PLpro, growth rescue; control for the full effect not named in the record | Potency, µM (doses to about 32.9 µM), for inactives: top-dose activity, positive = growth rescue | 330,000 tested, 0.19% active; also: 0% is about no effect; nearly all actives have a fitted effect of over 55% in size; growth read by luminescence after 48 h
Cruzain inh Det: blocks cruzain activity in presence of Triton detergent; P25779; purified cruzain, Z-FR-AMC fluorescence, 0.01% Triton; Potency, µM, for inactives: max response, negative = inhibition, hits mostly inhibitors; 200,000 tested, 0.43% active; active = well fitted curve in the direction sought with a large enough effect; inconclusive = small, poorly fitted or top-dose-only effect, or another doubt; inactive = no such curve, though single readings can be large; an effect the other way counts as inactive or inconclusive;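 also: plate controls were neutral wells for no effect and buffer without enzyme for full effect; nearly all actives have a fitted effect of over 40% in size; top concentration of the series not given in the record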
Target sequence (P25779 123-467 limits assumed): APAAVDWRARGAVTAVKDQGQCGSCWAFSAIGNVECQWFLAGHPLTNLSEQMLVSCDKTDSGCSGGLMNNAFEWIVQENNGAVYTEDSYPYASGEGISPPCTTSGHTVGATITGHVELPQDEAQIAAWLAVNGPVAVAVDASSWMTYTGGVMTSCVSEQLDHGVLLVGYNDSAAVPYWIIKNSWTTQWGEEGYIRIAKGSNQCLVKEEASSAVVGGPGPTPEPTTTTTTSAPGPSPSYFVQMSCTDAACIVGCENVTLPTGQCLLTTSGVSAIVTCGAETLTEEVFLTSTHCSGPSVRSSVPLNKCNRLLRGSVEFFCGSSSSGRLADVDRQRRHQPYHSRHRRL
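15 min RT preincubation of 1.5 nM cruzain with compound, then 2 uM Z-FR-AMC added; kinetic AMC fluorescence, 60 s delta. Triton X-100 0.01%, pH 5.5.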
StopGo reporter: lowers the luciferase signal of an FMDV 2A StopGo reporter; human cells with a luciferase reporter of 2A StopGo recoding; control for the full effect not named in the record; Potency, µM (series often up to 57.9 µM), without a hit: at the top dose signal change, negative = less light; 410,000 tested, 1.2% active; active = well fitted falling curve with a large enough effect; inconclusive = small, poorly fitted or top-dose-only effect; inactive = no such curve, though single readings can be large or run the other way; tested in HEK293T cells; also: % is scaled to controls: 0 for no effect and ±100 for the full control effect; nearly all actives have a fitted effect of over 45% in size; luciferase light after 4 h
Cruzain noTriton: inhibitors of Trypanosoma cruzi cruzain without detergent; P25779; purified cruzain, Z-FR-AMC fluorescence, no detergent; Potency, µM, inactives show max response, negative = inhibition, usual class: inhibitors; 200,000 tested, 2.3% active; AID 1476; active = well fitted curve in the direction sought with a large enough effect; inconclusive = small, poorly fitted or top-dose-only effect, or another doubt; inactive = no such curve, though single readings can be large; an effect the other way counts as inactive or inconclusive;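 also: plate controls were enzyme without inhibitor for no effect and buffer without enzyme for full effect; nearly all actives have a fitted effect of over 40% in size; top concentration of the series not given in the record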
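Detergent-free condition (0.00005% Triton X-100) in acetate buffer pH 5.5 with DTT. 1.5 nM enzyme and compound were pre-mixed 15 min, then 2 uM Z-FR-AMC substrate added; reaction progress from fluorescence change between first and third reads (60 s).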
Active calls of the source: *; ? = inconclusive; nt = no result given; & = joins results of further samples; [ ] = remark or other dose. Unless noted, calls follow the shape of the dose curve; as a rule, active means well fitted rising curve with a large enough effect; inconclusive means small, poorly fitted or top-dose-only effect; inactive means no such curve, though single readings can be large or run the other way. Potency is read from the fitted curve at half-maximal effect.

SMILES | Lassa entry inh | RE007 growth inh | NS1 inh | MARV entry inh | SARS PLP yeast | Cruzain inh Det | StopGo reporter | Cruzain noTriton
CC(Cc1cccs1)N(Cc1ccc(Cl)cc1)C(=O)c1ccncc1 (stereo not given) | nt | -8% | -59% | nt | -8% | nt | -20% | nt
O=C(Nc1ccc(SC(F)F)cc1)C1=COCCO1 | ? | -20% | -4% | ? | -10% | 0.6% | -10% | 6%
CCCCCCNS(=O)(=O)c1ccc(Cl)s1 | -1% | -29% | -71% | 1% | -4% | -9.9% | 35%[activator] | -5%
Cc1ccc(/C=C/C(=O)O)cc1S(=O)(=O)Nc1ccc2c(c1)OCO2 | -11%[46.1 µM] | -14% | 2% | -1%[46.1 µM] | 0% | nt | 9% | nt
O=C(Nc1ccnn1C1CCN(CC2CC=CCC2)CC1)c1ccccc1Cl (stereo not given) | nt | 2% | -3% | nt | 9% | nt | -13% | nt
O=C(NNC(=O)c1ccccc1C(=O)O)c1ccc(S(=O)(=O)N2CCCCC2)cc1 | nt | 9% | 9% | 25%[46.1 µM] | 8% | nt | 11% | nt
CN1CCN(S(=O)(=O)c2ccc(Oc3cccc(C(F)(F)F)c3)nc2)CC1 | -3% | -11% | nt | -2% | -1% | nt | -12% | nt
Cc1ccc(S(=O)(=O)NCC(=O)N/N=C/c2ccc(Cl)cc2)cc1 | 3% | 6% | 8% | 1% | -1% | -2.1% | 6% | 0%
Clc1ccc2nc3c4ccccc4cnn3c2c1 | ? | 3% | -3% | 4%[46.1 µM] | -1% | nt | 16% | nt
COc1ccc(C(=O)OCC(=O)NC23CC4CC(CC(C4)C2)C3)c(OC)c1OC | ? | -14% | nt | ? | -12% | nt | -8% | nt
c1cc2c(cc1-c1csc(NNC3=NCCCCC3)n1)OCCO2 | ? | ? | nt | ? | -7% | nt | ? | nt
Cn1c(SCc2nc3cc(C(=O)O)ccc3c(=O)[nH]2)nnc1C(F)(F)F | -1% | 0% | -1% | 5% | 0% | nt | -8% | nt
COCc1cc(C)nc(SCC(=O)Nc2ccc3[nH]c(=O)[nH]c3c2)c1C#N | -22%[46.1 µM] | 11% | 7% | 1%[46.1 µM] | 0% | nt | -20% | nt
CC(=O)Nc1cccc(NC(=O)CSc2nccn2C2CCCC2)c1 | -9%[46.1 µM] | nt | nt | nt | nt | 2.9% | -8% | -10%
CCc1ccc(S(=O)(=O)c2nnn3c2nc(NC(C)C)c2sccc23)cc1 | 1%[46.1 µM] | nt | nt | nt | nt | -0.9% | -5% | -3%
CC(C)C(NC(=O)c1ccc(C(C)(C)C)cc1)C(=O)N1CCCC1 (stereo not given) | 6% | 0% | 7% | -4%[46.1 µM] | 0% | nt | 2% | nt
O=C(Nc1cccnc1Cl)c1cc2c(s1)-c1ccccc1OC2 | nt | -2% | -9% | nt | 22% | nt | 15% | nt
O=C(CCl)NCc1cc(-c2ccc(Cl)cc2)no1 | ? | 8% | nt | ? | 0% | nt | ? | nt
COc1ccc(C2CC(=O)C3=C(C2)Nc2ccccc2N(C(=O)CCC(=O)O)C3c2ccc(F)cc2)cc1 (stereo not given) | nt | -6% | 2% | nt | 0% | nt | -6% | nt
COC(=O)C(C)(C)ONC(=O)Nc1ccccc1[N+](=O)[O-] | 11%[46.1 µM] | -8% | -3% | -6%[46.1 µM] | -2% | nt | -4% | nt
COc1ccc(-n2c(SCC(=O)N3CCCCC3)nc3ccccc3c2=O)cc1 | 12%[46.1 µM] | -11% | 4% | ? | 0% | nt | -7% | nt
O=C(NCCc1c[nH]c2ccccc12)c1cc2sccc2n1Cc1ccccc1 | ? | 4% | 19% | -12% | -3% | -2.4% | ? | ?
CC1CCCCC1NC(=O)/C(C#N)=C/c1ccccc1F (stereo not given) | ? | -6% | -48% | ? | -88% | -3.1% | ? | -9%
Cc1ccc(C(=O)OCn2ncc(Cl)c(Cl)c2=O)cc1 | 23µM* | 50µM* | -203% | 15µM* | -37% | -11% | 16µM* | -13%
Cc1ccccc1NC(=S)Nc1ccc2cn[nH]c2c1 | 3% | 10% | nt | 17%[46.1 µM] | -2% | nt | 46%[activator] | nt
CCOC(=O)c1c(NC(=O)Cn2nc(C(=O)O)c3ccccc3c2=O)sc(C)c1C | 7% | 4% | -2% | 1%[46.1 µM] | 0% | nt | -24% | nt
Cc1noc(C)c1CSc1ncnc2sc3c(c12)CCC3 | nt | nt | -46% | -3% | 1% | -3.2% | nt | 5%
Cc1cc(C(=O)COC(=O)C2CC2)c(C)n1-c1ccc(F)cc1 | ? | 6% | nt | 6% | -2% | nt | ? | nt
S=c1[nH]nc(Cn2nnc3ccccc32)n1-c1ccccc1 | 9% | 4% | -10% | 9%[46.1 µM] | 1% | nt | 9% | nt
CC(C)CC(=O)Nc1nnc(S(=O)(=O)N(CC(C)C)c2ccccc2)s1 | ? | nt | nt | nt | nt | -5.2% | 0% | 1%

Overlap with the part before: three entries; new compounds follow.
SMILES | Lassa entry inh | RE007 growth inh | NS1 inh | MARV entry inh | SARS PLP yeast | Cruzain inh Det | StopGo reporter | Cruzain noTriton
Cc1cc(C(=O)COC(=O)C2CC2)c(C)n1-c1ccc(F)cc1 | ? | 6% | nt | 6% | -2% | nt | ? | nt
S=c1[nH]nc(Cn2nnc3ccccc32)n1-c1ccccc1 | 9% | 4% | -10% | 9%[46.1 µM] | 1% | nt | 9% | nt
CC(C)CC(=O)Nc1nnc(S(=O)(=O)N(CC(C)C)c2ccccc2)s1 | ? | nt | nt | nt | nt | -5.2% | 0% | 1%
Cc1ccc(N2CCN(C(=O)C3CCCN(c4ncnc5c4nc4n5CCCCC4)C3)CC2)c(C)c1 (stereo not given) | nt | 17% | 4% | nt | -1% | nt | ? | nt
C/C(=N\OCC(=O)N/N=C/c1ccc(C)cc1O)c1cccs1 | 14% | 2% | -20% | -19% | -1% | -7.4% | 11% | -1%
O=C(O)CCC(NC(=O)C(Cc1ccc2c(c1)OCO2)NC(=O)c1ccccc1)C(=O)O (stereo not given) | nt | nt | 5% | -1% | 0% | -0.1% | nt | -9%
CCOc1ccc(NC(=O)NC2CCS(=O)(=O)C2)cc1 (stereo not given) | 0% | 4% | 3% | 1%[46.1 µM] | 3% | nt | -9% | nt
COC(=O)c1[nH]c(C)c(/C(O)=C2\C(=O)C(=O)N(CCN(C)C)C2c2ccco2)c1C (stereo not given) | -2% | -20% | -7% | 2% | 11% | -6.8% | 7% | -12%
CCc1cc(=O)oc2cc(C)cc(OCC(=O)NC3CC3)c12 | nt | -10% | 5% | nt | 14% | nt | -15% | nt
CCOC(=O)/C(C#N)=C1/SC(CC)C(=O)N1c1ccc(C)cc1 (stereo not given) | 5% | 18% | ? | 9% | 24% | -2.0% | -8% | 0%
OC(c1cccnc1)c1cccs1 (stereo not given) | -6% | -7% | 1% | 1%&1% | 1% | 3.2% | -9% | 0%
Cc1ccc(C(=O)C[n+]2ccc3ccccc3c2)cc1 | ? | -26% | nt | ? | -4% | nt | 33%[activator] | nt
Cc1cc(C)cc(Nc2cnn(C34CC5CC(CC(CC(=O)O)(C5)C3)C4)c(=O)c2Cl)c1 | 1% | 12% | 18% | -13% | 0% | -8.1% | nt | 5%
COc1ccccc1C(=O)Nc1nc2ccc(S(=O)(=O)N3CCCC3)cc2s1 | 8%[46.1 µM] | nt | nt | nt | nt | -0.2% | -4% | -6%
Cc1ccc(-n2cc(C(=O)c3ccc(F)cc3)nn2)cc1Cl | 9% | -1% | 4% | ? | 0% | 4.5% | -15% | -1%
CN(CC(=O)Nc1ccccc1Cl)C(=O)COC(=O)C1CCN(c2ccc(C(F)(F)F)cn2)CC1 | 2% | 2% | nt | 25% | 0% | nt | -21% | nt
Cn1nc(C(=O)N2CCCCC2)c2c1-c1ccccc1S(=O)(=O)C2 | nt | 1% | 13% | nt | 6% | nt | -7% | nt
Cc1ccc(S(=O)(=O)Cc2ccc(C(=O)NC3CCCC3)o2)cc1 | nt | 2% | -11% | nt | -1% | nt | -4% | nt
CC(=O)N1CCN(c2ccc(NCc3ccc4c(c3)OCO4)cc2)CC1 | -3% | 3% | ? | ? | -6% | -3.7% | -19% | 11%
O=C(NCc1cccc(F)c1F)C1CCC(=O)N(C2CCCCCC2)C1 (stereo not given) | 9% | -16% | -5% | 0% | -2% | nt | 11% | nt
COc1ccc(CNC(=O)Cn2nc(C)c3c(C)n(-c4ccc(C)cc4)nc3c2=O)cc1OC | nt | -6% | -1% | nt | 2% | nt | -19% | nt
COc1ccc(C2C(C#N)=C(N)OC3=C2C(=O)CC(C)(C)C3)cc1 (stereo not given) | nt | 2% | 0% | nt | 0% | nt | 0% | nt
C=CCC(=O)N1CCCC(CCC(=O)NCc2ccccc2F)C1 (stereo not given) | 3% | 10% | 4% | 27%[46.1 µM] | -1% | nt | 35%[activator] | nt
O=C(CNC(=O)c1ccccc1F)OCc1cc(=O)n2nc(C3CCCCC3)sc2n1 | -3%[46.1 µM] | nt | nt | nt | nt | -9.0% | 13% | -6%
Cc1nn(Cc2ccc(Cl)cc2)c(C)c1NC(=O)c1ccc([N+](=O)[O-])cc1 | 26% | 6% | -11% | -22% | -3% | -2.6% | ? | 7%
CCOC(=O)C1(CCCc2ccccc2)CCN(C(=O)COC)CC1 | nt | 16% | -6% | -5% | -1% | nt | -14% | nt
COc1ccc(OCC(=O)OCC(=O)NCc2ccc(F)cc2)cc1 | 18% | nt | 2% | 17% | ? | -1.5% | 1% | 4%
CN1C(C(=O)Nc2ccccn2)=C(O)c2sc(Cl)cc2S1(=O)=O | nt | 10% | -16% | nt | -7% | nt | -23% | nt
CC(C)c1ccc(CNn2cnnc2)cc1 | ? | -3% | -12% | -2%[46.1 µM] | 7% | nt | -7% | nt
